Arbovirus anti: antivirals against arbovirus infection | arbovirus infection cell-based antiviral screen | inhibition, % at 10 µM | actives 0.37% (n = 200,000);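 active means inhibition from about 30%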;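 further: bluetongue infection of BSR cells; cell survival read as ATP light after 72 h; 0% = infected wells without compound and 100% = uninfected wells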
Mtb growth: M. tuberculosis H37Rv growth inhibitors, H37Rv strain (AID 1626); M. tuberculosis H37Rv growth inhibition; higher % means a stronger effect; inhibition, % at 10 µM; hits with a dose series show IC50 in µM; actives 0.95% (n = 220,000);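 active means confirmed in a dose series; inconclusive means inhibition above 80% but not taken into the dose series; inactive means below 80% or under 30% at every dose of the series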;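 further: bacteria incubated seven days before Alamar blue readout; 0% = bacteria only wells and 100% = bacteria with antibiotic wells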
Mtb betalactam: beta-lactam sensitization of Mtb H37Rv. M. tuberculosis H37Rv growth with meropenem, percent inhibition; hits of this screen are not shown here. inhibition, % at 25 µM. actives 0.27% (n = 330,000);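 active means about 74% or more and at least 40 points above the plate without the antibiotic, then above 30% in a dose series; inconclusive means first-round hits that could not be retested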;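 further: growth measured after seven days incubation then overnight dye step; 0% = bacteria only wells and 100% = bacteria with antibiotic; twin plates without the antibiotic show which effects depend on it; some results filed as inactive read as strong as hits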
RecA intein inh: blocks M. tuberculosis RecA intein splicing. AID 2221. inhibition, %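 (about 9 µM by stock and volumes)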. cell-free RecA intein splicing, fluorescence. actives 0.75% (n = 290,000). P9WHJ3; in the data active means inhibition above about 30%; inconclusive means no clear call, values can overlap the other calls;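 further: 0% = vehicle wells and 100% = reference inhibitor control wells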
Target sequence (P9WHJ3 whole entry, looked up): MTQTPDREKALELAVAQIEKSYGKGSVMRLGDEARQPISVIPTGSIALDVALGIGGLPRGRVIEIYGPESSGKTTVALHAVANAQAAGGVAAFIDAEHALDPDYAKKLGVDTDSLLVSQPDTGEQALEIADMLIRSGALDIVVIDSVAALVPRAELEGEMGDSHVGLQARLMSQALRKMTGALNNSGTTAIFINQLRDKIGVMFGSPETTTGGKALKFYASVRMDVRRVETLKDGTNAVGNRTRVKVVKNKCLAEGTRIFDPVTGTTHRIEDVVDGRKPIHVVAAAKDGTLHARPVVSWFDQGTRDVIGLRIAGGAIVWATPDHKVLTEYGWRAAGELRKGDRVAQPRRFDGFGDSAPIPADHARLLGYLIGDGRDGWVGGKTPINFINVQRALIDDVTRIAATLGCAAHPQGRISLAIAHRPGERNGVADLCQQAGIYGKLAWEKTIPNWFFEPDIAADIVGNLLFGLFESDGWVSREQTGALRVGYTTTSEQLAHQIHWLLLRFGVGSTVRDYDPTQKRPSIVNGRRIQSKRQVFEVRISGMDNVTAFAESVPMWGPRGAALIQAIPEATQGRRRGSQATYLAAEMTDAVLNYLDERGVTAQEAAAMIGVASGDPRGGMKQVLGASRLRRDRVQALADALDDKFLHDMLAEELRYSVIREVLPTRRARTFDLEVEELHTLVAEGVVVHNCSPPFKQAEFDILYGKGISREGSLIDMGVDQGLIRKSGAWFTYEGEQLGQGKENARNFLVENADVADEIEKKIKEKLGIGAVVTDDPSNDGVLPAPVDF
YopH PTP inh: YopH (Yersinia) phosphatase inhibition | fluorescence Ex485/Em525 | actives 0.16% (n = 140,000) | inhibition, %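 (about 10 µM by stock and volumes)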 | AID 898;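 active means inhibition of 50% or more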;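 further: controls were vehicle for no effect and minimum signal wells for full effect; inactives centre near -20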
Arbovirus anti repeat: also measured in Arbovirus anti; calls as there; inhibition, %; measured here: 10K subset replicate screen; many hits read low in the repeat;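 first of two repeat runs on a subset; 0% = infected and 100% = uninfected wells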
* = called active by the depositor; ? = inconclusive; · = not tested or not shown; & = joins results of further samples. Some of the compounds tested; count on the stated rates, not on these rows.

SMILES	Arbovirus anti	Mtb growth	Mtb betalactam	RecA intein inh	YopH PTP inh	others
CCC(C)NS(=O)(=O)c1ccc(OCC(=O)N2CCCC2)cc1 (stereo not given)	0	-5%	10	·	-2
N#C/C(=N\Nc1cccc([N+](=O)[O-])c1)C(=O)c1ccc(Br)cc1	-23	?	72	9.1	·
C/C(CC(=O)N(C(C)C)C(C)C)=N\NC(=O)c1ccccc1Br	-1	-1%	-4	3.7	-27
COc1ccccc1CNC(=O)C(NS(=O)(=O)c1ccc2c(c1)OCCO2)C(C)C (stereo not given)	0	2%	-7	0.2	-9
COc1ccc2c(c1)sc1nc(-c3ccccc3)cn12	-13	16%	96	0.7	-33
COc1cccc(OC)c1C(=O)Nc1nc2cc3c(cc2s1)OCO3	·	0%	9	-2.3	·
COc1ccc(CS(=O)(=O)CC2(O)CCN(C(=O)c3cccc(C(F)(F)F)c3)CC2)cc1	12	11%	5	3.7	·
O=S(=O)(c1ccc(-c2csc(Nc3ccc(F)cc3)n2)cc1)N1CCCC1	-5	12%	3	-7.7	-9
CC(=O)c1ccc(OCC(O)CN2CCN(Cc3ccc4c(c3)OCO4)CC2)cc1 (stereo not given)	-5	-7%&-8%	-10&2	-1.2	-16	Arbovirus anti repeat=-3
Cc1ccc(NC(=O)c2ccc(Cl)c(S(=O)(=O)N3CCCCCC3)c2)nc1	·	·	-2	2.5	·
O=C1Nc2ccccc2S/C1=C\C(=O)N1CCCC1	-9	·	-12	-3.5	·
CCC(C)NC(=O)C1CCN(S(=O)(=O)c2ccc(-n3cnnn3)cc2)CC1 (stereo not given)	·	·	-4	17	·
C=CCN1C(=O)/C(=C/c2cc(C)n(-c3ccccn3)c2C)C(=O)NC1=S	5	-7%	5	-2.5	-24
CN(C)c1nccc(N(Cc2ccccc2)Cc2ccccc2)c1C#N	-16	4%	-5	21	-2
COc1ccc(OC)c(N2C(=O)CC(Cc3cc(C)cc(C)c3)C2=O)c1 (stereo not given)	-9	-6%	-7	1.5	-10
CC(C)(C)NC(=O)CSc1n[nH]c(=O)n1-c1ccccc1	2	0%	-11	-1.8	-37
O=c1c2ccccc2c(C=Nc2cccc(S(=O)(=O)NCc3ccco3)c2)c(O)n1-c1ccc(Cl)cn1	-12	18%	-5	-4.3	-57
CC1(C2CC2)NC(=O)NC1=O (stereo not given)	1	-2%	25	-4.3	-22
Cc1cc(NC(=O)CCCn2nc(C)c([N+](=O)[O-])c2C)no1	-1	2%	-7	0.0	·
COc1cccc(CNC(=O)C2Cc3ccccc3CN2C(C)=O)c1 (stereo not given)	·	·	-5	1.6	·
CCCCCC(=O)NC(NC(=S)NC1CCS(=O)(=O)C1)C(Cl)(Cl)Cl (stereo not given)	3	-11%	11	-1.9	-20
Cc1cc(C)cc(-n2c(C)nc3cc(C(=O)O)ccc32)c1	2	0%	-9	-0.4	·
CCC(C)c1ccc(C(C)NC(=S)NC2CCCCC2)cc1 (stereo not given)	·	·	1	9.5	·
Fc1ccc(-c2ccnc3nc(N4CCN(c5ccccc5)CC4)nn23)cc1	4	3%	-25	-1.3	-10

Arranged by SMILES length (smallest number first): some entries from above
SMILES	Arbovirus anti	Mtb growth	Mtb betalactam	RecA intein inh	YopH PTP inh	others
Cc1cc(C)cc(-n2c(C)nc3cc(C(=O)O)ccc32)c1	2	0%	-9	-0.4	·
Cc1cc(NC(=O)CCCn2nc(C)c([N+](=O)[O-])c2C)no1	-1	2%	-7	0.0	·
Fc1ccc(-c2ccnc3nc(N4CCN(c5ccccc5)CC4)nn23)cc1	4	3%	-25	-1.3	-10
O=c1c2ccccc2c(C=Nc2cccc(S(=O)(=O)NCc3ccco3)c2)c(O)n1-c1ccc(Cl)cn1	-12	18%	-5	-4.3	-57

(next part)
SMILES	Arbovirus anti	Mtb growth	Mtb betalactam	RecA intein inh	YopH PTP inh	others
CC1Sc2ccc(S(=O)(=O)N3CCC(C(=O)NCc4ccccc4)CC3)cc2NC1=O (stereo not given)	·	·	-2	1.5	·
O=C1c2cccc3c([N+](=O)[O-])c(O)cc(c23)C(=O)N1Nc1ccccc1	4	4%	0	22	·
O=C(/C=C/c1ccc2c(c1)OCCCO2)c1ccccc1O	-6	5%	-1	6.4	-13
COc1cc(/C=C(\C#N)C(=O)c2c(C)[nH]c3ccccc23)cc(OC)c1OC	-5	-2%	0	-3.4	-27
O=[n+]1c2c(n([O-])c3ccccc31)CCCC2	-3	-2%	-11	0.2	-55
Cc1ccc(-c2nnc(SCC(=O)N/N=C/c3c(C)nn(-c4ccccc4)c3C)n2-c2ccccc2)cc1	-4	·	0	-0.6	-28
Cc1ccc(S(=O)(=O)N2CCCOC2CNC(=O)C(=O)NCCCn2ccnc2)cc1 (stereo not given)	-12	4%	10	2.2	-15
Cn1c(=O)c(=O)n(C)c2cc(N3CCOCC3)c(NS(=O)(=O)c3ccc([N+](=O)[O-])cc3)cc21	·	·	7	-3.0	·
CCCNC(=O)NC(=O)CSc1ccc2c(c1)OCCO2	7	5%	-12	·	-10
C=CC[n+]1c(/C=C2\C=Cc3cc(C)ccc3N2CC)ccc2ccccc21	-30	?	99	4.8	·
COc1cc(-c2noc(CCCC(=O)NCc3ccco3)n2)cc(OC)c1OC	2	3%	-4	-2.1	5
O=C(Oc1coc(CSc2nnc(NC(=O)C3CC3)s2)cc1=O)c1ccccc1	5	4%	0	-2.4	-7
CC1CN(C(=O)c2cc3cc(Br)ccc3[nH]2)CC(C)O1 (stereo not given)	·	·	6	2.8	·
Cc1cccc(OCC(=O)N(Cc2ccco2)C2CCS(=O)(=O)C2)c1 (stereo not given)	·	·	3	-0.3	·
CCc1cc2c(cc3c(=O)n(CC(=O)NCCCN4CC(C)CC(C)C4)ncn32)s1 (stereo not given)	-35	0%	·	·	-26
Cc1ccc(S(=O)(=O)N2CCN(C(=O)Cn3nc(C)c([N+](=O)[O-])c3C)CC2)c(C)c1	·	·	-14	-2.9	·
CCN1CCN(C(=O)COc2ccc3c(c2)C(=O)CC2(CCN(C(C)=O)CC2)O3)CC1	7	-9%	-4	-8.6	-26
COC(=O)c1cn(NC(=O)c2cccc(OC)c2)c(=O)c2ccccc12	7	-4%	5	1.7	10
c1cnc2ncc3sccc3c2c1	11	-4%	1	-0.7	-17
COc1ccc(OC)c(-c2csc(NC(=O)C3c4ccccc4Oc4ccccc43)n2)c1	3	14%	3	0.0	-3
CC(C)CN1CCN(CC#Cc2ccccc2)CC1CCO (stereo not given)	3	0%	1	·	·
COc1cc(-c2[nH]ncc2CN(C)Cc2cc(C)[nH]n2)cc(OC)c1OC	-2	-3%	-10	-2.2	·
CC1CCCC(C)N1/N=C/c1ccccc1F (stereo not given)	·	·	-3	1.0	·
COc1ccc(Nc2cc(C)nc(NCc3ccccc3)n2)cc1	·	20%	67	16	·
CCc1ccc(N2CC(C(=O)Nc3cc(C)ccc3F)CC2=O)cc1 (stereo not given)	7	3%	8	-1.5	-40
Cc1c(NC(=O)C(C)Sc2nc3ccccc3c(=O)n2CCO)c(=O)n(-c2ccccc2)n1C (stereo not given)	8	-1%	-6	-2.7	-38
O=C(O)c1ccc2c(c1)OCCO2	3	-4%	-7	-7.1	-26
CCSC1=N/C(=C/c2ccsc2)C(=O)N1c1ccccc1	-1	17%	12	-6.9	-7
CCSc1ncc(Cl)c(C(=O)Nc2sc3c(c2C(=O)NCc2cccnc2)CCCC3)n1	-6	-3%	-5	-3.5	-25
O=C(Nc1ccc(F)cc1)C1CCN(c2nnnn2-c2ccccc2)CC1	9	1%	-4	-0.6	-16
COc1ccc(C(=O)OCCN2C(=O)c3ccccc3C2=O)cc1	-6	7%	1	-1.1	-47	Arbovirus anti repeat=1
CCC(=O)N1c2ccccc2-c2nnc(SC)nc2OC1c1ccc(N(C)C)cc1 (stereo not given)	4	-9%	-3	0.2	-32	Arbovirus anti repeat=2
C=CCN(C(=O)Nc1ccc(F)cc1)C1CC(=O)N(c2ccc(OC)cc2)C1=O (stereo not given)	16	-5%	-12	·	-25
N#CC1=C(N)OC2=C(CC/C2=C\c2ccccc2Cl)C1c1ccccc1Cl (stereo not given)	-37	7%	10	-10	-23
COc1cccc(-c2ccc(=O)n(CC(=O)Nc3cc4c(cc3NC(C)=O)OCCO4)n2)c1	10	-8%	-4	0.3	-28
CC(C)C(=O)N1CCN(c2ccc(NC(=O)c3cccs3)cc2Cl)CC1	-28	3%	96	11	·

The last six records of the section before come first, to join the parts:
SMILES	Arbovirus anti	Mtb growth	Mtb betalactam	RecA intein inh	YopH PTP inh	others
COc1ccc(C(=O)OCCN2C(=O)c3ccccc3C2=O)cc1	-6	7%	1	-1.1	-47	Arbovirus anti repeat=1
CCC(=O)N1c2ccccc2-c2nnc(SC)nc2OC1c1ccc(N(C)C)cc1 (stereo not given)	4	-9%	-3	0.2	-32	Arbovirus anti repeat=2
C=CCN(C(=O)Nc1ccc(F)cc1)C1CC(=O)N(c2ccc(OC)cc2)C1=O (stereo not given)	16	-5%	-12	·	-25
N#CC1=C(N)OC2=C(CC/C2=C\c2ccccc2Cl)C1c1ccccc1Cl (stereo not given)	-37	7%	10	-10	-23
COc1cccc(-c2ccc(=O)n(CC(=O)Nc3cc4c(cc3NC(C)=O)OCCO4)n2)c1	10	-8%	-4	0.3	-28
CC(C)C(=O)N1CCN(c2ccc(NC(=O)c3cccs3)cc2Cl)CC1	-28	3%	96	11	·
Cc1ccc(CNCC(O)(c2ccccc2)c2ccc(Cl)cc2)cc1 (stereo not given)	-20	8.2µM*	·	0.3	·
C=CCNC(=O)c1ccc([N+](=O)[O-])c(Cl)c1	-2	-3%	0	-13	·
Cc1ccc(C)c(NC(=O)c2ccccc2NC(=O)C2CCCO2)c1 (stereo not given)	-4	2%	-1	2.6	·
Cc1onc(C(=O)/C=C/N(C)C)c1C(=O)Nc1nccs1	10	2%	0	1.1	-26
Cc1cccc(CCN(CC(=O)NCc2ccc(F)cc2)C(=O)c2csnn2)c1	·	·	9	3.0	·
Cn1cc(Cl)c(-c2nc3ccccc3[nH]2)n1	-5	-5%	-6	-2.3	-13
Cc1ccccc1NC(=O)N1CCC(NC(=O)C2CCCCC2)CC1	·	·	1	-3.0	·
CCCn1c(SCC(=O)N2CCCC(C)C2)nnc1-c1ccccn1 (stereo not given)	3	-2%	1	-2.4	·
Fc1ccccc1NC(=S)Nc1ccc(CN2CCOCC2)cc1	2	2%	-1	-1.7	·
CCC(C)N1C(=O)/C(=C\c2ccc(N3CCCCCC3)cc2)C(=O)NC1=S (stereo not given)	2	6%	5	-2.3	-22
COc1ccc(OC)c(/C=N/c2oc(-c3ccco3)c(-c3ccco3)c2C#N)c1	-1	-5%	4	-2.6	-19
CC(C)c1ccc(NC(=S)Nc2cccc3ccccc23)cc1	·	·	63	13	·
Cc1ccc(OCC(=O)NNC(=O)C2CCN(c3nc(C)cc(C)n3)CC2)cc1	-2	-3%	10	0.9	-7
COc1cccc(NC(=O)Nc2cc(NC(=O)Nc3cccc(OC)c3)c(C)nc2C)c1	18	9%	7	2.5	-20
CC(OC(=O)c1ccc2c(c1)OCCO2)C(=O)c1ccccc1 (stereo not given)	·	·	-15	-5.8	·
COc1cccc(C(=O)NCCS(=O)(=O)NCc2cccs2)c1	·	·	2	-1.0	·
CC/C(C)=C1\SC(N2CCN(c3cccc(C(F)(F)F)c3)CC2)=NC1=O	-15	6%	-4	20	2
CC(=O)c1ccc(N2C(=NC(=O)C(C)C)SC3CS(=O)(=O)CC32)cc1 (stereo not given)	7	-5%	-4	-0.3	-20
CN(Cc1ccccc1)Cc1c[nH]c2ccccc12	18	5%	-5	0.5	-6
Cc1ccccc1Nc1nnc(SCC(=O)c2cc3ccccc3o2)s1	4	2%	-4	1.3	-25
Cc1cc(C)cc(OCCN2CCOCC2)c1	·	·	-1	-0.5	·
COc1ccccc1NC(=O)c1ccc(C)s1	4	0%	12	-0.4	1
O=C(CCc1ccccc1)Nc1ccccc1F	-2	-5%	-7	11	-41
Cc1occc1C(=O)NCc1nc(-c2ccc(Cl)cc2)no1	·	·	0	2.8	·
Cc1ccc(C)c(C(=O)n2cnnc2N)c1	4	4%	-8	·	23
CCOC(=O)Cc1csc(NS(=O)(=O)c2ccc(OC)cc2)n1	7	-12%	-4	3.8	·
CS(=O)(=O)N(CCc1ccccc1)CC(=O)Nc1ccc(Br)cc1F	·	·	-1	2.7	·
CS(=O)(=O)N(CCc1ccccc1)CC(=O)NCc1ccncc1	2	-8%	1	0.1	-14
COc1ccc(OC)c(NC(=O)Nc2cccc(Cn3cccn3)c2)c1	-9	0%	8	2.5	-21
C/C(Cl)=C\Cn1c(=O)c2c(nc3n2CCS3)n(C)c1=O	3	-5%	8	-1.0	12
CCc1ccccc1NC(=O)c1ccccc1Sc1ccc([N+](=O)[O-])cc1Cl	0	9%	-5	-0.9	-17
COc1ccc(NC(=O)CNC(=O)c2ccco2)cc1	·	·	3	-1.0	·
CC1=Nc2ccccc2/C1=C\c1nc(-c2ccc(F)cc2)oc1O	7	55%	·	·	-16
